# High-throughput results from PubChem.
# MLL AF4-AF9 inh: blocks AF4 peptide binding to human AF9; P42568; AlphaScreen, biotin-AF4 peptide binding to FLAG-AF9; inhibition, % at 10 µM; actives 0.47% (n = 350,000);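 active = every replicate reaching a set inhibition limit, whatever the replicate mean, cut at about 25% in these data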;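 also: 0% = plate neutral control median and 100% = total signal loss; the record names both 10 and 1 µM as test concentration; the first replicate is given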
# Target sequence (P42568 whole entry, looked up): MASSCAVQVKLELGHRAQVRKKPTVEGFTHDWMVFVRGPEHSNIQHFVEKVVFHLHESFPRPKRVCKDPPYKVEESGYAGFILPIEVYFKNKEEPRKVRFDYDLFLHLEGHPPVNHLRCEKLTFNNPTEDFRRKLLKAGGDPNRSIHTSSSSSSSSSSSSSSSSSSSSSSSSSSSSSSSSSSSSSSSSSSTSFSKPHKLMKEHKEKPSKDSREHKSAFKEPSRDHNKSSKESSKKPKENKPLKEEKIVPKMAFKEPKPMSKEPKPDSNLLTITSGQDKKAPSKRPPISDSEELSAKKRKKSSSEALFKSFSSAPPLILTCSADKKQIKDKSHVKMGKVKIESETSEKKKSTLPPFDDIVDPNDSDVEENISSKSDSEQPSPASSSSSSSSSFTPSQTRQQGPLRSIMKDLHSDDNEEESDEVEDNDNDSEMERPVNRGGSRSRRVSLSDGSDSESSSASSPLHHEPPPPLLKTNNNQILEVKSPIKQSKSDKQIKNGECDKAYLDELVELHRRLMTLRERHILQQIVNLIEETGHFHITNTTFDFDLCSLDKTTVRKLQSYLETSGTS
# FGF22 binding: binders of recombinant human FGF22 by thermal shift; Q9HCT0; SYPRO orange fluorescence; percent of sucrose octasulfate shift, DMSO zero; calls only at 9.99 µM; actives 1.5% (n = 340,000);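 active = melting point raised past a set limit in the mean and every replicate; three in four hits are not shown here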
# Target sequence (Q9HCT0 whole entry, looked up): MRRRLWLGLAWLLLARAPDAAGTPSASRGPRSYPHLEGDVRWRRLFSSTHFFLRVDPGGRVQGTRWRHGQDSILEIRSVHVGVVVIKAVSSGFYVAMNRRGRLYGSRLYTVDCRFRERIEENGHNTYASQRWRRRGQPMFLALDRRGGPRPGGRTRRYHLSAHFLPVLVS
# The depositor's hits bear a star; i = inactive. Only part of the results is shown, so the mix of outcomes need not match the whole.
MLL AF4-AF9 inh | FGF22 binding | structure
2.0 | i | C[C@H]1CN([C@@H](C)CO)C(=O)Cc2cc(NC(=O)Cc3ccccc3)ccc2O[C@@H]1CN(C)S(=O)(=O)c1ccc(Cl)cc1
-2.1 | i | CC(C)NC(=O)Nc1ccc2c(c1)C(=O)N([C@H](C)CO)C[C@H](C)[C@H](CN(C)C(=O)Nc1ccc(C(F)(F)F)cc1)OCCCC[C@@H](C)O2
1.4 | i | NCC[C@@H]1CC[C@@H](NC(=O)C2CCCCC2)[C@H](CO)O1
-3.0 | i | COc1ccc(S(=O)(=O)N(C)C[C@@H]2Oc3ccc(NC(=O)CCC(F)(F)F)cc3CC(=O)N([C@@H](C)CO)C[C@@H]2C)cc1
0.8 | i | C[C@@H]1CN([C@@H](C)CO)C(=O)c2cccc(NS(=O)(=O)c3ccc(F)cc3)c2O[C@@H]1CN(C)S(=O)(=O)c1ccccc1
-0.6 | i | C[C@@H]1CN([C@@H](C)CO)C(=O)c2cc(NC(=O)c3ccncc3)ccc2O[C@@H]1CN(C)Cc1ccc2c(c1)OCO2
0.4 | i | CCCNC(=O)N1CC2(C1)[C@H](c1ccccc1)[C@H](CO)N2CC1CCCC1
-0.6 | i | CCOC(=O)[C@@H]1CSCCS(=O)(=O)N1C(=O)[C@H](CCSC)NC(=O)OC(C)(C)C

# Next entries follow.
MLL AF4-AF9 inh | FGF22 binding | structure
-1.3 | i | CC(=O)N(C)C[C@@H]1Oc2ncc(-c3ccccc3C)cc2C(=O)N([C@@H](C)CO)C[C@H]1C
-3.1 | i | Cc1noc(C)c1NC(=O)N(C)C[C@H]1Oc2ccc(NC(=O)C3CCCCC3)cc2C(=O)N([C@H](C)CO)C[C@H]1C
-0.1 | i | C[C@@H]1CN([C@H](C)CO)C(=O)c2cc(NC(=O)c3ccccc3)ccc2O[C@@H](C)CCCCO[C@H]1CN(C)Cc1ccc(C(F)(F)F)cc1
1.9 | i | C/C=C/c1ccc([C@H]2[C@@H](CO)N(CC3CC3)C23CN(S(C)(=O)=O)C3)cc1
-0.3 | i | O=S(=O)(c1ccccc1F)N1CC[C@@H]2[C@@H](CO)Nc3ccc(-c4ccccc4)cc3[C@@H]21
0.2 | i | COc1ccccc1S(=O)(=O)N(C)C[C@H]1OCc2ccccc2-c2ccccc2C(=O)N([C@H](C)CO)C[C@@H]1C
4.8 | i | O=C(C[C@H]1CC[C@@H]2[C@H](COC[C@H](O)CN2S(=O)(=O)c2ccc(Cl)cc2)O1)N[C@H]1CCN(Cc2ccccc2)C1
0.0 | i | COc1ccccc1-c1ccc2c(c1)O[C@H](CN(C)S(=O)(=O)c1ccc(F)cc1)[C@@H](C)CN([C@@H](C)CO)S2(=O)=O

# Next part:
MLL AF4-AF9 inh | FGF22 binding | structure
2.4 | i | C[C@@H]1CN([C@@H](C)CO)C(=O)c2cc(NC(=O)Nc3cccc4ccccc34)ccc2O[C@@H](C)CCCCO[C@@H]1CN(C)C(=O)C1CCCCC1
0.0 | i | CO[C@H](CN(C)S(=O)(=O)c1ccc(F)cc1)[C@@H](C)CN([C@H](C)CO)S(=O)(=O)c1cccc(Cl)c1
0.9 | i | CNC[C@@H]1Oc2ccc(NC(=O)CCCN(C)C)cc2C(=O)N([C@@H](C)CO)C[C@@H]1C
4.2 | i | C[C@@H]1CN([C@H](C)CO)C(=O)c2cccc(NC(=O)Nc3ccc4c(c3)OCO4)c2O[C@H]1CN(C)S(=O)(=O)c1ccccc1
-1.8 | i | COC(=O)[C@H]1[C@H](CO)[C@H]2Cn3c(ccc(-c4cccc(F)c4)c3=O)[C@H]2N1CC1CC1
-0.6 | i | C[C@H]1CN([C@@H](C)CO)C(=O)Cc2cc(NC(=O)NC3CCCCC3)ccc2O[C@H]1CN(C)S(=O)(=O)c1ccccc1
4.7 | i | CCNC(=O)[C@@H]1[C@@H](CO)[C@@H]2Cn3c(ccc(-c4ccccc4OC)c3=O)[C@@H]2N1S(C)(=O)=O
0.5 | i | COc1ccc(NC(=O)N(C)C[C@@H]2Oc3ccc(NC(=O)Cc4cn(C)c5ccccc45)cc3CC(=O)N([C@@H](C)CO)C[C@H]2C)cc1

# Remaining list, next part.
MLL AF4-AF9 inh | FGF22 binding | structure
-0.8 | i | CN(C)CC(=O)N1[C@@H]2c3ccc(C4=CCCC4)c(=O)n3C[C@H]1[C@H](CO)[C@H]2C(=O)NCC1CC1
2.1 | i | C[C@@H]1CN([C@H](C)CO)C(=O)c2cccc(NC(=O)Nc3cccc4ccccc34)c2O[C@H]1CN(C)C(=O)Nc1cccc2ccccc12
3.3 | i | CCCC(=O)N1CC2(C1)CN(S(C)(=O)=O)[C@@H](CO)c1c2c2ccc(OC)cc2n1C
-0.5 | i | Cc1noc(C)c1S(=O)(=O)Nc1ccc2c(c1)CC(=O)N([C@@H](C)CO)C[C@@H](C)[C@@H](CN(C)C)O2
-1.5 | i | CN(C)C(=O)C[C@H]1CC[C@@H](NC(=O)C2CC2)[C@H](CO)O1
2.0 | i | C[C@@H]1CN([C@H](C)CO)C(=O)Cc2cc(NS(=O)(=O)c3ccccc3)ccc2O[C@H]1CN(C)Cc1ccc(Cl)c(Cl)c1
-1.2 | i | C/C=C/c1ccc2c(c1)O[C@@H](CN(C)C(=O)C1CCOCC1)[C@@H](C)CN([C@H](C)CO)S2(=O)=O
-6.8 | i | C[C@@H]1CN([C@H](C)CO)S(=O)(=O)c2ccc(C#CC3CC3)cc2O[C@@H]1CN(C)C

# The listing continues.
MLL AF4-AF9 inh | FGF22 binding | structure
5.2 | i | COc1ccc2c3c([nH]c2c1)[C@@H](CO)N(Cc1ccc(Cl)cc1)CC31CN(Cc2nccs2)C1
-1.6 | i | CCCC(=O)Nc1ccc2c(c1)C(=O)N(C)C[C@H](OC)[C@@H](C)CN(C(=O)CN(C)C)[C@@H](C)CO2
0.4 | i | COc1ccc2c3c(n(C)c2c1)[C@@H](CO)N(Cc1ccncc1)CC31CN(C(=O)Cc2ccncc2)C1
3.6 | i | C[C@H](CO)N1C[C@H](C)[C@H](CN(C)Cc2ccc(C(=O)Nc3ccccc3N)cc2)Oc2c(NC(=O)c3nc4ccccc4s3)cccc2C1=O
0.9 | i | Cc1ccc(S(=O)(=O)N(C)C[C@@H]2Oc3ccc(NC(=O)Cn4cnnn4)cc3C(=O)N([C@H](C)CO)C[C@@H]2C)cc1
-1.4 | i | C[C@H](CO)N1C[C@H](C)[C@H](CN(C)Cc2ccc(-c3ccccc3)cc2)Oc2c(NS(=O)(=O)c3cn(C)cn3)cccc2C1=O
0.4 | i | CCCC#Cc1ccc2c(c1)O[C@@H](CN(C)S(C)(=O)=O)[C@@H](C)CN([C@@H](C)CO)S2(=O)=O
0.0 | i | C[C@@H]1CN([C@H](C)CO)S(=O)(=O)c2ccc(-c3cccc(C#N)c3)cc2O[C@@H]1CN(C)C(=O)c1ccc(F)cc1

# Compounds listed so far that contain a CF3 group:
MLL AF4-AF9 inh | FGF22 binding | structure
-2.1 | i | CC(C)NC(=O)Nc1ccc2c(c1)C(=O)N([C@H](C)CO)C[C@H](C)[C@H](CN(C)C(=O)Nc1ccc(C(F)(F)F)cc1)OCCCC[C@@H](C)O2
-3.0 | i | COc1ccc(S(=O)(=O)N(C)C[C@@H]2Oc3ccc(NC(=O)CCC(F)(F)F)cc3CC(=O)N([C@@H](C)CO)C[C@@H]2C)cc1
-0.1 | i | C[C@@H]1CN([C@H](C)CO)C(=O)c2cc(NC(=O)c3ccccc3)ccc2O[C@@H](C)CCCCO[C@H]1CN(C)Cc1ccc(C(F)(F)F)cc1

# Carrying on.
MLL AF4-AF9 inh | FGF22 binding | structure
-19 | i | CCNC(=O)C[C@H]1CC[C@@H]2[C@H](COc3ccc(NC(=O)c4cscn4)cc3C(=O)N2C)O1
1.6 | i | C[C@H](NC(=O)C[C@H]1CC[C@H](NC(=O)C2CCOCC2)[C@@H](CO)O1)c1ccccc1
-1.9 | i | C=CCNC(=O)[C@@H]1[C@H]2C(=O)O[C@H](c3ccccc3)[C@H](c3ccccc3)N2[C@H](c2ccc(OCCO)cc2)[C@@]12C(=O)Nc1ccc(C#Cc3ccc(OC)cc3)cc12
-13 | i | C[C@@H]1CN([C@@H](C)CO)C(=O)Cc2cc(NS(=O)(=O)c3cccs3)ccc2O[C@@H]1CN(C)S(=O)(=O)c1cn(C)cn1
-0.2 | i | COc1ccc(CN2C[C@@H](O)COC[C@H]3O[C@H](CC(=O)NCc4ccccc4Cl)CC[C@@H]32)cc1
-4.2 | i | C[C@@H]1CCCCO[C@@H](CN(C)C(=O)NC2CCCCC2)[C@H](C)CN([C@@H](C)CO)C(=O)c2cc(NC(=O)c3ccncc3)ccc2O1
-1.1 | i | CC(C)NC(=O)N[C@H]1C=C[C@H](CC(=O)NCCCN(C)C)O[C@H]1CO
-2.7 | i | CC(C)NC(=O)N(C)C[C@@H]1OCCCC[C@@H](C)Oc2ccc(NS(=O)(=O)c3ccc(F)cc3)cc2C(=O)N([C@H](C)CO)C[C@H]1C

# New compounds follow:
MLL AF4-AF9 inh | FGF22 binding | structure
-1.4 | i | COc1ccc(S(=O)(=O)Nc2ccc3c(c2)C(=O)N([C@H](C)CO)C[C@@H](C)[C@@H](CN(C)C(=O)Cc2ccccc2)OCCCC[C@H](C)O3)cc1
0.7 | i | COc1cccc(S(=O)(=O)N[C@H]2C=C[C@@H](CC(=O)NC3Cc4ccccc4C3)O[C@H]2CO)c1
-10 | i | CO[C@@H]1CN(C)C(=O)c2cc(NC(=O)Nc3ccccc3F)ccc2OC[C@@H](C)N(S(=O)(=O)CC(F)(F)F)C[C@H]1C
0.5 | i | Cc1noc(C)c1NC(=O)N(C)C[C@H]1Oc2c(NS(=O)(=O)c3ccc(F)cc3)cccc2C(=O)N([C@H](C)CO)C[C@H]1C
-1.0 | i | O=C(N[C@@H]1CC[C@H](CCNS(=O)(=O)c2ccc(F)cc2)O[C@@H]1CO)C1CCCC1
-3.0 | i | O=C(c1cccnc1)N1C[C@H]2[C@@H](c3ccccc31)[C@H](CO)N2CC1CCCC1
-0.4 | i | CC(C)NC(=O)N[C@@H]1CC[C@@H](CC(=O)NCCN2CCCC2)O[C@H]1CO
-1.4 | i | C=CCNC(=O)[C@H]1[C@@H]2C(=O)O[C@@H](c3ccccc3)[C@@H](c3ccccc3)N2[C@@H](c2ccccc2OCCO)[C@]12C(=O)N(C(=O)OCCOC)c1ccc(C#CC3(O)CCCCCC3)cc12

# The list goes on:
MLL AF4-AF9 inh | FGF22 binding | structure
-0.6 | i | C[C@H](NC(=O)C[C@@H]1C=C[C@@H](NC(=O)Cc2ccccn2)[C@@H](CO)O1)c1ccccc1
1.7 | i | C[C@H](CO)N1C[C@H](C)[C@@H](CN(C)Cc2ccccc2)OCCCC[C@H](C)Oc2ccc(NS(=O)(=O)c3ccccc3)cc2C1=O
0.2 | i | CO[C@@H]1CN(C)C(=O)c2cc(NC(=O)C3CC3)ccc2OC[C@H](C)N(Cc2nccs2)C[C@@H]1C
-1.8 | i | C[C@@H]1CCCCO[C@@H](CN(C)S(=O)(=O)c2ccc(Cl)cc2)[C@H](C)CN([C@@H](C)CO)C(=O)c2cc(NC(=O)CCCN(C)C)ccc2O1
-2.8 | i | C[C@H]1CCCCO[C@H](CN(C)S(=O)(=O)c2ccc(F)cc2)[C@@H](C)CN([C@@H](C)CO)C(=O)c2cc(NS(=O)(=O)c3cccs3)ccc2O1
-2.8 | i | COc1ccc(CNC(=O)C[C@@H]2CC[C@@H](NC(=O)c3ccc4c(c3)OCO4)[C@@H](CO)O2)cc1
4.1 | i | CCCN(C)C[C@@H]1Oc2ncc(C#CCC(C)C)cc2C(=O)N([C@H](C)CO)C[C@H]1C
3.5 | i | CN1CCN(C(=O)[C@H]2[C@H](CO)[C@H]3Cn4c(ccc(/C=C/c5ccccc5)c4=O)[C@H]3N2CC2CC2)CC1

# Remaining list, next part:
MLL AF4-AF9 inh | FGF22 binding | structure
0.8 | i | C[C@H](CO)N1C[C@H](C)[C@@H](CN(C)S(=O)(=O)c2ccccc2)Oc2c(NC(=O)Nc3ccc(F)cc3)cccc2C1=O
-2.0 | i | C[C@@H](O)C#Cc1ccc([C@@H]2[C@H](CO)N3CCCCN(C(=O)c4ccc(F)cc4)C[C@@H]23)cc1
5.8 | i | C[C@H]1CN([C@@H](C)CO)C(=O)Cc2cc(NC(=O)c3ccncc3)ccc2O[C@H]1CN(C)Cc1ccc(Oc2ccccc2)cc1
0.5 | i | C[C@@H]1CN([C@H](C)CO)C(=O)Cc2cc(NC(=O)Nc3ccccc3)ccc2O[C@@H]1CN(C)Cc1ccc(Oc2ccccc2)cc1
-0.8 | i | C[C@@H]1CN([C@@H](C)CO)C(=O)c2cc(NS(=O)(=O)c3cccs3)ccc2O[C@H]1CN(C)C(=O)Nc1ccc(C(F)(F)F)cc1
-2.3 | i | C[C@H](CO)N1C[C@H](C)[C@H](CN(C)C)Oc2ccc(NC(=O)CCN3CCOCC3)cc2CC1=O
-0.1 | i | CCS(=O)(=O)N1CCCCN2[C@@H](CO)[C@@H](c3ccc(-c4ccccc4C)cc3)[C@@H]2C1
11 | i | C[C@H]1CN([C@@H](C)CO)C(=O)Cc2cc(NC(=O)Cc3cn(C)c4ccccc34)ccc2O[C@@H]1CN(C)CC1CCCCC1
1.9 | i | Cc1ccc(S(=O)(=O)N(C)C[C@H]2Oc3ncc(C#CC4(O)CCCC4)cc3C(=O)N([C@H](C)CO)C[C@@H]2C)cc1
0.4 | i | Cc1cc(C(=O)Nc2ccc3c(c2)C(=O)N(C)[C@@H]2CC[C@@H](CC(=O)NC4CCCC4)O[C@@H]2CO3)no1

# Sorted by count of non-hydrogen atoms (smallest number first): some entries from above.
MLL AF4-AF9 inh | FGF22 binding | structure
1.9 | i | C/C=C/c1ccc([C@H]2[C@@H](CO)N(CC3CC3)C23CN(S(C)(=O)=O)C3)cc1
1.6 | i | C[C@H](NC(=O)C[C@H]1CC[C@H](NC(=O)C2CCOCC2)[C@@H](CO)O1)c1ccccc1
0.5 | i | Cc1noc(C)c1NC(=O)N(C)C[C@H]1Oc2c(NS(=O)(=O)c3ccc(F)cc3)cccc2C(=O)N([C@H](C)CO)C[C@H]1C
